Screens (PubChem BioAssay)
E coli growth: blocks Escherichia coli growth; actives 0.21% (n = 330,000); OD600, 23 h; stronger effect = lower value; OD600 absorbance (test concentration not listed);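 active = OD600 absorbance below the run mean of sample wells minus 3.6 SD, in any replicate, cut at about 0.56 in these data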;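 note: stock transfer was 300 nL into about 60 µL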
FGF22 binding: shifts melting point of recombinant human FGF22; Q9HCT0; recombinant FGF22 thermal shift, SYPRO orange fluorescence; percent of sucrose octasulfate shift, DMSO zero; calls only at 9.99 µM; actives 1.5% (n = 340,000); AID 651658;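 active = melting point raised past a set limit in the mean and every replicate; three in four hits are not shown here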
Target sequence (Q9HCT0 whole entry, looked up): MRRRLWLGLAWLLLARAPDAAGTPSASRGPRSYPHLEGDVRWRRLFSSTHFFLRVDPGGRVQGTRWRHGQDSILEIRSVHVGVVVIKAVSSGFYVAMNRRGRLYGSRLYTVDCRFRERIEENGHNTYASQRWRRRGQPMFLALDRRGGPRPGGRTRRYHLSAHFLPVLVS
AF4-AF9 inh: inhibitors of human MLL-AF4/AF9 interaction | P42568 | AlphaScreen, biotin-AF4 peptide binding to FLAG-AF9 | inhibition, % at 10 µM | actives 0.47% (n = 350,000) | AID 651704;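 active = every replicate reaching a set inhibition limit, whatever the replicate mean, cut at about 25% in these data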;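 note: 0% = plate neutral control median and 100% = total signal loss; the record names both 10 and 1 µM as test concentration; the first replicate is given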
Target sequence (P42568 whole entry, looked up): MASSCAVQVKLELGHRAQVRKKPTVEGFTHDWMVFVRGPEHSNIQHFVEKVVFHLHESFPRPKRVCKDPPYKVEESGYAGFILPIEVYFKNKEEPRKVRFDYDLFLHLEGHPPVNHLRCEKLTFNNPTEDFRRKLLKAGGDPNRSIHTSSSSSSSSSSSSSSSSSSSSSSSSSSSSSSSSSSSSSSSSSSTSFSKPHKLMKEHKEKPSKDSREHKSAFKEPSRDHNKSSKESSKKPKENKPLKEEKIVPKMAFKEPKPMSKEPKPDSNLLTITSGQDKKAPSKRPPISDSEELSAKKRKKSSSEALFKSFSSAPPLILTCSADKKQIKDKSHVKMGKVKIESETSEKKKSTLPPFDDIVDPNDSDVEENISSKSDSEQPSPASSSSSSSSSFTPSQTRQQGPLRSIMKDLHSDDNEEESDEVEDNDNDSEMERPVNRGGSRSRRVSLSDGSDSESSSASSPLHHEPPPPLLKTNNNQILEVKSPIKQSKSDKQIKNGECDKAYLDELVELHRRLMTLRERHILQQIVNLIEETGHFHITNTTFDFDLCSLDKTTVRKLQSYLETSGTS
UCH37 inh: human UCH37 deubiquitinating enzyme inhibition; Q9Y5K5; purified proteasome/UCH37, Ub-AMC cleavage fluorescence; inhibition, % (no concentration beside the values); actives 0.33% (n = 330,000); AID 588478;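 active = mean of two replicates above 20%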;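 note: 0% = compound-free wells with enzyme and 100% = wells lacking proteasome; stock transfer was 100 nL into about 20 µL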
Target sequence (Q9Y5K5 whole entry, looked up): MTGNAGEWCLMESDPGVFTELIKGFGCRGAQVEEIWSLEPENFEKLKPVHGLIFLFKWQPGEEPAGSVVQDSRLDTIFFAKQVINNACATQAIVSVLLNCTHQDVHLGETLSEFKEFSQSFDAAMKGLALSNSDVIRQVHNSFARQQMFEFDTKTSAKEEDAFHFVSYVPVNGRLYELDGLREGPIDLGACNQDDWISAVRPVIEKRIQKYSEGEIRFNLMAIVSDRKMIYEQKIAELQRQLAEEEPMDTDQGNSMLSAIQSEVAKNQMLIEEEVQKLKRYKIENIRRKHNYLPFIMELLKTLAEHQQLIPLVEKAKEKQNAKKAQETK
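Assay system: Proteasome-bound UCH37. Buffer or medium: pH 7.4 Tris-HCl (50 mM) with ovalbumin, ATP-MgCl2, DTT. Incubation: 30 min preincubation with enzyme, 25 min cleavage at room temperature. Measured by: fluorescence, ex 355 nm, em 460 nm. Read-out basis: percent inhibition. Control set: wells without proteasome as full block, compound-free enzyme plus substrate as uninhibited.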
Beta cell apopt: beta cell apoptosis inhibition | INS-1E cytokine-induced death, ATP luminescence, 48 h; percent of positive-control rescue, neutral wells zero | protection from apoptosis, % (no concentration beside the values) | actives 0.8% (n = 300,000) | AID 435005;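 active = all replicates at 75% or more, or half of them and the mean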;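 note: 0% = cytokine-treated negative control wells and 100% = positive control rescue; higher means more ATP so stronger rescue from cytokine killing; wells of about 40 µL received 100 nL stock; the first replicate is given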
rRNA inh HTS: inhibits bacterial ribosomal RNA function over humanized ribosomes; E. coli WT GFP vs humanized-ribosome RFP mutants, fluorescence, 24 h; stronger effect = lower value; DMSO median 0, no signal -100; GFP signal change (wild-type ribosome), % (test concentration not listed); actives 1.6% (n = 350,000);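 active = significant combined selectivity score with lowered wild-type GFP, culture density cut under 30%, mutant RFP and density less affected; inactive = any of these conditions unmet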; note: one replicate is shown; some compounds called inactive have numbers as strong as hits
T cruzi inh: T. cruzi replication inhibition; actives 1.4% (n = 300,000); T. cruzi beta-gal in NIH3T3, luminescence, 90 h; AID 1885; inhibition, % (concentration not given with the values);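 active = mean inhibition across valid replicates above about 55%, limit read from the data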;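 note: signal also drops with host cell toxicity which is not excluded here; 0% = plate median of DMSO wells and 100% = zero luminescence signal; higher percent means less beta-gal luminescence so fewer parasites; stock transfer was 50 nL into about 50 µL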
Bfl-1 A1 inh: inhibitors of the anti-apoptotic protein A1, read as caspase activation | MEF A1-2A-BIM cells, Caspase-Glo 3/7 luminescence, 3 h; percent of clofoctol response, vehicle zero | caspase activation, % (concentration not given with the values) | actives 0.066% (n = 330,000) | AID 2462;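 active = over half of replicate activation scores above 10%, or exactly half above 10 with the replicate mean above 10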;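 note: wells of about 30 µL received 50 nL stock; many hits fall short of the cut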
rRNA inh HTS OD600: also measured in rRNA inh HTS; calls as there; OD600 change, %; measured here: OD600 growth;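 optical density of the mix in the first replicate; 0 = DMSO median and -100 = no signal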
rRNA inh HTS RFP: second read-out of rRNA inh HTS, no call of its own (marks repeat the call); RFP signal change, %; measured here: RFP humanized mutant strains;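 first replicate; 0 = DMSO median and -100 = no signal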
Active calls of the source: *. Some of the compounds tested; rates above refer to the full screens.

Screening O=C(CN1C(=O)CSc2ccccc21)N1CCc2ccccc21 returned E coli growth 0.72, FGF22 binding inactive, AF4-AF9 inh 6.8, UCH37 inh 3.4, Beta cell apopt 0, rRNA inh HTS -12, Bfl-1 A1 inh 0.6, rRNA inh HTS OD600 -12 and rRNA inh HTS RFP 12.
For COc1ccc(NC(=O)c2cc(=O)[nH]c(=O)[nH]2)cc1S(=O)(=O)Nc1ccccc1Cl the results were E coli growth 0.69, AF4-AF9 inh -1.3, UCH37 inh 2.4, Beta cell apopt 4, rRNA inh HTS -8, T cruzi inh -15, Bfl-1 A1 inh 1.5, rRNA inh HTS OD600 7 and rRNA inh HTS RFP -0.5.
For Cc1cc(NC(=O)CCCSc2nc(-c3ccco3)cc(C(F)(F)F)n2)no1 the results were E coli growth 0.79, UCH37 inh -6.0, Beta cell apopt 6, T cruzi inh 5 and Bfl-1 A1 inh 0.8.
For Cn1cccc1Cc1nnc(SCC(=O)Nc2ccc3c(c2)OCCO3)n1-c1ccc(F)cc1 the results were E coli growth 0.71, FGF22 binding inactive, AF4-AF9 inh 9.7, UCH37 inh 4.6, Beta cell apopt 0, rRNA inh HTS -3, T cruzi inh 5, Bfl-1 A1 inh -0.3, rRNA inh HTS OD600 2 and rRNA inh HTS RFP 2.4.
For CC1CCN(C(=O)CC#N)CC1 the results were E coli growth 0.66, FGF22 binding inactive, UCH37 inh 2.0, Beta cell apopt -6, rRNA inh HTS 15, T cruzi inh -6, Bfl-1 A1 inh 0.6, rRNA inh HTS OD600 7 and rRNA inh HTS RFP 0.3.
COc1ccc(C(O)(CCN2CCOCC2)c2ccccc2)cc1 (centres undefined) was read as E coli growth 0.69, FGF22 binding inactive, AF4-AF9 inh -0.6, UCH37 inh 0.5, Beta cell apopt -2, rRNA inh HTS 7, T cruzi inh -10, Bfl-1 A1 inh -0.5, rRNA inh HTS OD600 11 and rRNA inh HTS RFP -2.1.
For CC1(C)Cc2ccccc2-c2nnc(-c3ccco3)n21 the results were E coli growth 0.73, UCH37 inh -1.0, Beta cell apopt 0, T cruzi inh 5 and Bfl-1 A1 inh 0.5.
CC(=O)N(OCc1ccc(OC(C)C)c(Cl)c1)C(C)=O was read as E coli growth 0.68, FGF22 binding inactive, AF4-AF9 inh -3.8, UCH37 inh 0.1, Beta cell apopt -6, rRNA inh HTS 4, T cruzi inh -15, Bfl-1 A1 inh 0.2, rRNA inh HTS OD600 6 and rRNA inh HTS RFP 5.8.
Screening CC1CCN(C(=O)CCCl)c2ccccc21 (centres undefined) returned E coli growth 0.65, FGF22 binding inactive, AF4-AF9 inh -2.2 and UCH37 inh 3.5.
`COc1ccc(N2CN=C3SCC(=O)N3C2)cc1` gave E coli growth 0.7, UCH37 inh 0.5, Beta cell apopt 5, T cruzi inh 11 and Bfl-1 A1 inh 0.2.
CCO[C@@H]1OC(C(=O)NC2CC2)=C[C@H](c2csc3ccccc23)[C@H]1CCCO was read as E coli growth 0.8, FGF22 binding inactive, AF4-AF9 inh -22, UCH37 inh 0.5, Beta cell apopt -5, rRNA inh HTS -8, T cruzi inh 6, Bfl-1 A1 inh 0.2, rRNA inh HTS OD600 -8 and rRNA inh HTS RFP 11.
Screening CC1(CCC(=O)N2CCCC(N3CCN(c4cccc(C(F)(F)F)c4)CC3)C2)CC1 (centres undefined) returned E coli growth 0.69, FGF22 binding inactive, AF4-AF9 inh 3.8, UCH37 inh 3.4, Beta cell apopt -1, rRNA inh HTS -42, T cruzi inh 22, Bfl-1 A1 inh 0.1, rRNA inh HTS OD600 -71 and rRNA inh HTS RFP -6.3.
O=C(CSc1nnnn1-c1ccccc1)NC(=O)Cc1ccccc1 was read as E coli growth 0.68, FGF22 binding inactive, AF4-AF9 inh -2.4, UCH37 inh 0.7, Beta cell apopt -7, rRNA inh HTS 6, Bfl-1 A1 inh -0.6, rRNA inh HTS OD600 -4 and rRNA inh HTS RFP -0.2.
For CCOC(=O)C(CC)Sc1nnc2c3cc(C)ccc3n(C)c2n1 (centres undefined) the results were E coli growth 0.71, UCH37 inh 6.6, Beta cell apopt 2, T cruzi inh 22 and Bfl-1 A1 inh 0.0.
CCCCc1nnc(NC(=O)CN2C(=O)NC3(CCCCC3)C2=O)s1 was read as E coli growth 0.71, FGF22 binding inactive, AF4-AF9 inh -0.5, UCH37 inh 2.3, Beta cell apopt -9, rRNA inh HTS -13, T cruzi inh -4, Bfl-1 A1 inh -0.2, rRNA inh HTS OD600 -5 and rRNA inh HTS RFP -1.4.
`O=c1c2c3c(sc2nc2n1CCCCC2)CCCCC3` gave E coli growth 0.64, UCH37 inh 0.1, Beta cell apopt -1, T cruzi inh 20 and Bfl-1 A1 inh -4.6.
For O=C(NCCS(=O)(=O)N1CCN(c2ccccc2F)CC1)c1ccc(Cl)cc1 the results were E coli growth 0.68, FGF22 binding inactive, AF4-AF9 inh -0.2, UCH37 inh -1.0, Beta cell apopt -3, rRNA inh HTS 1, T cruzi inh 4, Bfl-1 A1 inh 0.6, rRNA inh HTS OD600 -7 and rRNA inh HTS RFP -2.2.
Screening O=C(CN1C(=O)c2ccc(Br)cc2C1=O)NCC1CCCO1 (centres undefined) returned E coli growth 0.66, FGF22 binding inactive, AF4-AF9 inh -1.6, UCH37 inh -0.3, Beta cell apopt 3, rRNA inh HTS 8, T cruzi inh -8, Bfl-1 A1 inh 0.3, rRNA inh HTS OD600 14 and rRNA inh HTS RFP -2.1.
`CC(Oc1ccccc1)C(=O)N1CCN=C1SCc1cccc(F)c1` (centres undefined) gave E coli growth 0.73, FGF22 binding inactive, AF4-AF9 inh -5.2, UCH37 inh 1.8, Beta cell apopt 2, rRNA inh HTS 1, T cruzi inh 3, Bfl-1 A1 inh -0.3, rRNA inh HTS OD600 3 and rRNA inh HTS RFP 0.9.
O=C(CCCOc1ccccc1)NCCc1nc2ccccc2[nH]1 was read as E coli growth 0.69, FGF22 binding inactive, AF4-AF9 inh -0.8, UCH37 inh 6.1, Beta cell apopt -7, rRNA inh HTS -19*, T cruzi inh -2, Bfl-1 A1 inh 1.2, rRNA inh HTS OD600 -15* and rRNA inh HTS RFP 2.7*.
CNS(=O)(=O)c1cccc(C(=O)OCC(=O)c2cc(C)n(CC3CCCO3)c2C)c1 (centres undefined) was read as E coli growth 0.66, FGF22 binding inactive, AF4-AF9 inh 3.5, UCH37 inh 0.9, Beta cell apopt 1, rRNA inh HTS -5, Bfl-1 A1 inh -0.9, rRNA inh HTS OD600 -6 and rRNA inh HTS RFP 1.0.
COc1ccc(CN2CCC(C)CC2)cc1OCc1ccccc1 was read as E coli growth 0.72, FGF22 binding inactive, AF4-AF9 inh 2.2, UCH37 inh 2.6, Beta cell apopt 21, rRNA inh HTS 5, T cruzi inh -5, Bfl-1 A1 inh 0.0, rRNA inh HTS OD600 11 and rRNA inh HTS RFP 1.6.
COc1ccc(C)cc1NC(=O)c1sc2nc(C)nc(N3CCOCC3)c2c1C was read as E coli growth 0.71, FGF22 binding inactive, AF4-AF9 inh -3.8, UCH37 inh -332, Beta cell apopt -5, rRNA inh HTS 5, T cruzi inh 23, Bfl-1 A1 inh 0.0, rRNA inh HTS OD600 8 and rRNA inh HTS RFP 1.2.
`O=C(NC1CCCC1)c1cccc2c1C(=O)c1ccc(/C=C/c3ccccc3)cc1S2(=O)=O` gave FGF22 binding inactive, AF4-AF9 inh -2.9, UCH37 inh -7.7, Beta cell apopt 5, rRNA inh HTS 5, Bfl-1 A1 inh 40*, rRNA inh HTS OD600 12 and rRNA inh HTS RFP -6.1.
Screening O=c1ccc2cc(S(=O)(=O)N3CCN(c4ccccc4F)CC3)ccc2o1 returned E coli growth 0.66, FGF22 binding inactive, AF4-AF9 inh 6.2, UCH37 inh 3.2, rRNA inh HTS 7, T cruzi inh 9, Bfl-1 A1 inh -0.2, rRNA inh HTS OD600 9 and rRNA inh HTS RFP -3.6.
CCS(=O)(=O)Nc1cccc(-c2ccc3nnc(-c4cccnc4)n3n2)c1 was read as E coli growth 0.68, FGF22 binding inactive, AF4-AF9 inh 1.2, UCH37 inh -6.4, Beta cell apopt 0, rRNA inh HTS -1, T cruzi inh 6, Bfl-1 A1 inh -2.9, rRNA inh HTS OD600 2 and rRNA inh HTS RFP -0.3.
For CCCn1c(=O)c2[nH]c(-c3ccc(OCC(=O)Nc4ccc(C#N)cc4)cc3)nc2n(CCC)c1=O the results were E coli growth 0.71, FGF22 binding inactive, AF4-AF9 inh 7.7, UCH37 inh 0.7, Beta cell apopt 2 and Bfl-1 A1 inh -1.7.
`COc1cc(OC)cc(-c2c(-c3cccs3)c3cc(-c4ccn[nH]4)ccc3n2C)c1` gave FGF22 binding inactive, AF4-AF9 inh 5.7, UCH37 inh -17, Beta cell apopt 3, rRNA inh HTS -8, Bfl-1 A1 inh -1.0, rRNA inh HTS OD600 -6 and rRNA inh HTS RFP -8.7.
`COc1ccc(-c2noc(C3CCCN(C(=O)c4cccc(F)c4)C3)n2)cc1` (centres undefined) gave E coli growth 0.65, FGF22 binding inactive, AF4-AF9 inh -9.6, UCH37 inh 1.9, Beta cell apopt -3, rRNA inh HTS -30, T cruzi inh 1, Bfl-1 A1 inh -0.5, rRNA inh HTS OD600 -41 and rRNA inh HTS RFP -2.2.
For Cc1c(Cl)cccc1NC(=S)NCCC(C)C the results were E coli growth 0.7, UCH37 inh 2.6, T cruzi inh -20 and Bfl-1 A1 inh -1.0.
COCCNC(=O)Cn1c(=O)n(Cc2ccc(C(=O)NCCc3ccc(OC)c(OC)c3)cc2)c(=O)c2ccccc21 was read as E coli growth 0.69, FGF22 binding inactive, AF4-AF9 inh -2.1, UCH37 inh 2.3, Beta cell apopt 0, rRNA inh HTS 7, T cruzi inh 2, Bfl-1 A1 inh 0.8, rRNA inh HTS OD600 1 and rRNA inh HTS RFP -6.0.
For COc1ccc(OC)c(/C=C2\NC(=O)NC2=O)c1 the results were E coli growth 0.63, FGF22 binding inactive, AF4-AF9 inh 0.5, UCH37 inh -6.5, Beta cell apopt -8, rRNA inh HTS 8, T cruzi inh -16, Bfl-1 A1 inh 0.4, rRNA inh HTS OD600 7 and rRNA inh HTS RFP -1.5.

Retrieved by compound from the list above:
CCS(=O)(=O)Nc1cccc(-c2ccc3nnc(-c4cccnc4)n3n2)c1 was read as E coli growth 0.68, FGF22 binding inactive, AF4-AF9 inh 1.2, UCH37 inh -6.4, Beta cell apopt 0, rRNA inh HTS -1, T cruzi inh 6, Bfl-1 A1 inh -2.9, rRNA inh HTS OD600 2 and rRNA inh HTS RFP -0.3.
`COc1ccc(-c2noc(C3CCCN(C(=O)c4cccc(F)c4)C3)n2)cc1` (centres undefined) gave E coli growth 0.65, FGF22 binding inactive, AF4-AF9 inh -9.6, UCH37 inh 1.9, Beta cell apopt -3, rRNA inh HTS -30, T cruzi inh 1, Bfl-1 A1 inh -0.5, rRNA inh HTS OD600 -41 and rRNA inh HTS RFP -2.2.
Screening O=c1ccc2cc(S(=O)(=O)N3CCN(c4ccccc4F)CC3)ccc2o1 returned E coli growth 0.66, FGF22 binding inactive, AF4-AF9 inh 6.2, UCH37 inh 3.2, rRNA inh HTS 7, T cruzi inh 9, Bfl-1 A1 inh -0.2, rRNA inh HTS OD600 9 and rRNA inh HTS RFP -3.6.
